High-throughput results (PubChem)
TRPML1 blocker – human mucolipin-1 channel inhibition | Q9GZU1 | TRPML1-inducible cells, Ca2+ dye fluorescence, FDSS; hits give low values; inhibition of EC80 agonist-evoked calcium signal | activity change, negative = inhibition, % (test concentration not listed) | actives 0.02% (n = 390,000); in the data active means activity change below about -50%; inconclusive means about -30% to -50%; inactive means above about -30%;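 also: stimulus is agonist 54-4 at its EC80 concentration; % is scaled to controls: 0 for no effect and ±100 for the full control effect; compound concentration not given in the record; the text of the record puts the active cut at -80%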
Target sequence (Q9GZU1 whole entry, looked up): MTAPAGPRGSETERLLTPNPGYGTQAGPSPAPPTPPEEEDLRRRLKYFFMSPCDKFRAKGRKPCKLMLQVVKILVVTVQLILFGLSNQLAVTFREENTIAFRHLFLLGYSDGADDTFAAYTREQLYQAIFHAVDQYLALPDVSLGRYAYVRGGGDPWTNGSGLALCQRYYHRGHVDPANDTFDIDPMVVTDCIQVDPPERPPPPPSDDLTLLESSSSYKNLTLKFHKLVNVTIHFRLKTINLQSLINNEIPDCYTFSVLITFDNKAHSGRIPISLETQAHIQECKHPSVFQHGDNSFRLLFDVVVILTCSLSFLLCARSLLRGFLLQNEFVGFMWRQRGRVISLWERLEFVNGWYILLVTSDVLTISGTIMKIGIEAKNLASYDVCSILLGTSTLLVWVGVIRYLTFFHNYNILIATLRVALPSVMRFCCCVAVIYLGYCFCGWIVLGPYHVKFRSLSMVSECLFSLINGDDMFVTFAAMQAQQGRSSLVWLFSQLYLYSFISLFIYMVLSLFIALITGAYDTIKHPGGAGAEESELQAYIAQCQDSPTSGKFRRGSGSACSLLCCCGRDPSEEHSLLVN
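TRPML1-DL cells, Tet-induced overnight (~16 h, 37 °C) at 1,500 cells/well, were loaded with Ca8 no-wash dye plus quencher for 45-90 min at room temperature. Compounds were pinned during FDSS kinetic reading; agonist 54-4 at EC80 (4 uM final) then added.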
Sfp inh – blocks B. subtilis Sfp PPTase activity; Q9F4F7; Biochemical Sfp PPTase activity, qHTS; Potency, µM, for inactives: max response, negative = inhibition, actives largely listed as inhibitors; actives 3.5% (n = 310,000); AID 1490; active = well fitted inhibition curve with a large enough effect; inconclusive = small, poorly fitted or top-dose-only effect, or another doubt; inactive = no such curve, though single readings can be large or run the other way;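 also: the enzyme is Sfp with the accession as filed and its product quenches rhodamine fluorescence; potency is read from the fitted curve at half-maximal effect; 0% = enzyme reaction without inhibitor and -100% = no enzyme wells; top concentration of the series not given in the record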
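Reaction rates are the 30-min fluorescence difference (ex 525, em 598 nm) in wells containing 15 nM Sfp, 5 uM rhodamine-CoA and 12.5 uM BHQ-2-YbbR at pH 7.6 with 10 mM MgCl2.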
Menin-MLL FL inh – inhibitors of human menin-MLL interaction, wild-type MLL peptide; Fluorescence polarization, fluorescein-MLL peptide displacement from menin; FP activity change, % at 61.4 µM; 290,000 tested, under 10 active; AID 1766; inconclusive = falling polarisation curve, or a change in total fluorescence; inactive = total fluorescence flat and polarisation flat or rising; no compound was filed as active; the % refers to the polarisation; negative = inhibition;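 also: % of control where 0% means no effect; inhibitors lower the polarisation; unlabelled MLL peptide was the positive control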
ClpP mod – qHTS Assay for Activators of ClpP; Potency, µM (titrated, usually from 57.5 µM), for inactives: at the top dose activity change, negative = active; actives 1.9% (n = 340,000); ATP-dependent Clp protease proteolytic subunit (Bacillus subtilis (strain 168)), P80244; purified B. subtilis ClpP, FRET peptide cleavage, 20 min; active = well fitted falling curve with a large enough effect; inconclusive = small, poorly fitted or top-dose-only effect; inactive = no such curve, though single readings can be large or run the other way; also: potency is read from the fitted curve at half-maximal effect; the source files actives as falling curves though it sought activators and does not explain the sign; nearly all actives have a fitted effect of over 65% in size; many hits overshoot -100%
Target sequence (P80244 whole entry, looked up): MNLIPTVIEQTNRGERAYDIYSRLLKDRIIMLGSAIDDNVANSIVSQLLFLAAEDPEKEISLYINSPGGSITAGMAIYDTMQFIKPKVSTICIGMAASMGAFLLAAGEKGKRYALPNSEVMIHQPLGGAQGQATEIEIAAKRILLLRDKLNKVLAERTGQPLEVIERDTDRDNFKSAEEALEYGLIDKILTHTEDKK
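Purified B. subtilis ClpP, 10 microg/mL final in Tris/HCl pH8 with KCl, BSA, glycerol and Tween-20, cleaved an Abz/nitrotyrosine-quenched decapeptide. Fluorescence (ex 320, em 430) was read at 0 and 20 min at room temperature. Delta was normalized to 5.8 microM ADEP and DMSO/no-enzyme controls.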
TRPV1 PAM – human TRPV1 potentiation | actives 0.02% (n = 320,000) | AID 540277 | TRPV1-expressing cells, Fluo-8 calcium influx, capsaicin EC20 potentiation; host cell line not named in the record; control for the full effect not named in the record | potentiation, % at 8.33 µM | Q8NER1; active means potentiation above 80%; inconclusive means 30% to 80%; inactive means below 30%; also: 0% is about no effect
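Cells expressing TRPV1 were dye-loaded with Fluo-8 and read kinetically: 10 s baseline, 3 min after compound (agonist portion), then 2 min after EC20 capsaicin (allosteric enhancer portion). Calcium-bound dye fluorescence at 480/520 nm.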
PINK1 expr mod – changes PINK1 expression | PINK1 immunofluorescence, high-content cytometry, 24 h | Potency, µM (doses to about 76.6 µM), for the others: top-dose activation (PINK1 increase), most hits filed as activators | actives 0.2% (n = 410,000) | AID 624263; active = well fitted activation curve with a large enough effect; inconclusive = small, poorly fitted or top-dose-only effect; inactive = flat fitted curve, though single readings scatter; cell line not stated here;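 also: potency is read from the fitted curve at half-maximal effect; % of control where 0% means no effect; nearly all actives have a fitted effect of over 65% in size; a mitochondrial uncoupler was the plate control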
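Fluorescence from anti-PINK1 antibody, together with nuclear and cell stains, was scanned on a laser-scanning cytometer. Before staining, stable-line cells were incubated 24 hours with compounds at 5 concentrations; primary antibody 12 h at 10 degrees C.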
TRPML1 ag – activates the human TRPML1 channel. TRPML1-expressing cells, Ca2+ dye fluorescence, FDSS; host cell line not named in the record; reference of the full effect not given here. activation, % (concentration not given with the values). Q9GZU1. actives 0.12% (n = 410,000). AID 624414; in the data active = activation above about 50%; inconclusive = about 30% to 50%; inactive = below about 30%; also: 0% is about no effect; the text of the record puts the active cut at 80%
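TRPML1-DL cells, Tet-induced overnight (~16 h, 37 degrees C), loaded 45-90 min at room temperature with Ca8 no-wash calcium dye plus quencher. FDSS fluorescence: 10 s baseline, compound pin-transfer, 110 s agonist read, then EC80 54-4 (4uM final) and 110 s antagonist read.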
* marks the source's active call; other numbers are inactive results; ? = inconclusive; / = no result given; [ ] = another dose, or the depositor's remark.

SMILES	TRPML1 blocker	Sfp inh	Menin-MLL FL inh	ClpP mod	TRPV1 PAM	PINK1 expr mod	TRPML1 ag
COCCN(C(=O)c1ccc(-c2ccc(Cl)cc2)o1)c1c(N)n(CC(C)C)c(=O)[nH]c1=O	20	/	/	-14%	1	-0.1%	1.8
CCn1nccc1C(=O)Nc1nc2ccccc2n1CCN1CCCCC1	-16	21%	0.5	-6.3%	-14	0.5%	-0.1
COCc1ccc(CN2CCCC(CCC(=O)NCc3cccc(OC)c3)C2)o1 (stereo not drawn)	13	0%	-0.4	/	-13	-1.1%	2.7
CC(=O)c1cccc(NC(=O)C2CCN(S(C)(=O)=O)CC2)c1	-4	16%	-2.0	-0.3%	1	-1.9%[38.3 µM]	-0.4
c1ccc(N2OCC3Cn4c(nc5ccccc54)C32)cc1 (stereo not drawn)	-15	?	4.5	-6.4%	?	0.0%	-0.9
CC(C)Oc1ccc(C2CNC(=O)C2)cc1 (stereo not drawn)	-4	-4%	2.0	-2.9%	4	2.6%	-0.8
COc1cc(-c2nc(C(N)=O)c3c(n2)n(-c2cccc(C)c2)c(=O)n3C)cc(OC)c1OC	-1	/	/	22µM*	/	0.4%	2.0
Cc1ccc(C(C)C)c(OCCn2ccnc2C)c1	16	-29%	3.7	-1.0%	4	0.0%	-1.5
Brc1ccc(CNCCCSc2nnnn2-c2ccccc2)cc1	-18	/	/	1.7%	/	-0.6%	0.2
CCCOc1ccc(C2C(=O)N(C3CCCCC3)CC(=O)N2CCCOCC)cc1OC (stereo not drawn)	5	-2%	-1.0	0.0%	-14	4.0%[38.3 µM]	2.8
COc1ccccc1OCCn1c(-c2ccc(Br)cc2)nc2ccccc2c1=O	-19	/	/	0.8%	/	0.7%	-1.3
CC1N=C2c3ccccc3N=C(SCc3cc(=O)n4cc(Cl)ccc4n3)N2C1=O (stereo not drawn)	0	-13%	-1.0	-22%	7	4.4%	-0.6
O=C(NCc1ccc(Cl)cc1)[C@@H]1CCCN1S(=O)(=O)c1ccc(Cl)cc1	13	/	/	-2.1%	/	0.5%	0.5
COc1ccc(NC(=O)C2Cc3c(-c4cccc(C(C)=O)c4)ccnc3O2)cc1 (stereo not drawn)	11	/	/	-4.1%	/	3.0%	-0.4
CCN(CC)CCN(Cc1cc2cc(C)cc(C)c2[nH]c1=O)C(=S)NCc1ccco1	-16	10%	3.3	-17%	11	-2.7%	0.3

Part of the list above, with each value named:
CC(C)Oc1ccc(C2CNC(=O)C2)cc1 (stereo not drawn)
  TRPML1 blocker: -4
  Sfp inh: -4%
  Menin-MLL FL inh: 2.0
  ClpP mod: -2.9%
  TRPV1 PAM: 4
  PINK1 expr mod: 2.6%
  TRPML1 ag: -0.8
COc1cc(-c2nc(C(N)=O)c3c(n2)n(-c2cccc(C)c2)c(=O)n3C)cc(OC)c1OC
  TRPML1 blocker: -1
  Sfp inh: /
  Menin-MLL FL inh: /
  ClpP mod: 22µM*
  TRPV1 PAM: /
  PINK1 expr mod: 0.4%
  TRPML1 ag: 2.0
Cc1ccc(C(C)C)c(OCCn2ccnc2C)c1
  TRPML1 blocker: 16
  Sfp inh: -29%
  Menin-MLL FL inh: 3.7
  ClpP mod: -1.0%
  TRPV1 PAM: 4
  PINK1 expr mod: 0.0%
  TRPML1 ag: -1.5

Going on with the list.
SMILES	TRPML1 blocker	Sfp inh	Menin-MLL FL inh	ClpP mod	TRPV1 PAM	PINK1 expr mod	TRPML1 ag
CC(C)CCOc1ccc(/C=N/N2C(=O)CSC2=S)cc1	21	6%	/	/	-3	6.9%	0.4
C[C@H](CO)N1C[C@H](C)[C@@H](CN(C)S(=O)(=O)c2ccc(F)cc2)Oc2ccc(NS(=O)(=O)c3cccs3)cc2C1=O	1	/	/	-2.6%	/	0.2%	0.1
O=S(=O)(c1cccc(-c2nnc(SC(F)F)n2-c2ccccc2)c1)N1CCCCC1	-10	7%	-1.0	0.6%	-22	3.0%	-1.5
O=C(/C=C/c1cccc(OCc2ccccc2)c1)c1cccnc1	5	50µM*	1.5	/	-7	8.7%	0.7
COCCN(C(=O)COC(=O)c1cccnc1SC)c1c(N)n(Cc2ccccc2)c(=O)[nH]c1=O	-7	/	/	3.8%	-1	2.4%	-0.7
Cc1nc(CC(=O)c2c(C)cc(O)cc2O)cs1	11	3%	3.6	0.5%	2	/	0.5
CN(Cc1c(F)cccc1Cl)C(=O)CCc1c[nH]c2ccccc12	4	12%	5.0	/	-3	0.3%	1.3
Cc1ccc(S(=O)(=O)N2CCN(C(=O)c3ccc4ccccc4n3)CC2)c(C)c1	5	/	/	-5.8%	3	-2.5%	1.1
COc1cccc(CNC(=O)CSc2cc(C)[nH]c(=O)n2)c1	35	/	/	-1.1%	/	-0.4%	-0.4
COC(=O)[C@]12CCCCC=C1N(CCC1=CCCCC1)C(=O)[C@H](CC(=O)N1CCN(C(=O)c3ccco3)CC1)C2	/	/	/	-1.0%	/	0.1%	-0.8
COc1cccc(-c2cc(NC=O)c3ncc(-c4ccc(OC)c(OC)c4)n3c2)c1	/	/	/	?	/	2.8%	-0.5
COc1ccccc1NC(=O)C(C)OC(=O)c1cc2ccccc2[nH]1 (stereo not drawn)	9	/	/	-16%	-9	1.0%	0.2
CCn1c(SCC(=O)Nc2oc(-c3ccccc3)c(-c3ccccc3)c2C#N)nnc1-c1ccncc1	23	-7%	1.5	-4.6%	20	0.5%	2.1
CC(C)(CC(=O)O)CC(=O)Nc1ccc2c(c1)ncn2CCc1ccccc1	2	22%	2.5	-0.6%	-2	1.8%	-0.3
Cc1cc(NCCCCO)n2c(nc3ccccc32)c1C#N	-1	-11%	16	54%	3	6.5%[38.3 µM]	-0.5
CN(C(=O)C1CCC1C(=O)O)c1nc(-c2ccc(Cl)s2)cs1 (stereo not drawn)	-6	23%	3.7	/	12	-1.1%	0.9
CCN(Cc1ccccc1)C(c1ccc(C)cc1)c1nnnn1C(C)(C)C (stereo not drawn)	-4	6%	-0.3	-1.6%	-4	0.0%	1.4
COc1cc(/C=N/NC(=O)c2ccc(N3CCCC3=O)cc2)ccc1O	-11	1%	/	-3.2%	-10	4.1%	-0.4
S=C1NCN(Cc2ccco2)CN1c1cccc2ccccc12	16	16%	1.4	2.0%	2	0.4%	1.0
O=C(C1CCCO1)N1CCN(C(=S)Nc2ccc(Br)cc2)CC1 (stereo not drawn)	-10	-6%	/	-8.9%	-8	5.7%	0.6
CC(=O)NC(Cc1ccc(F)cc1)C(=O)NC1CCN(C(=O)Nc2ccccc2C)CC1 (stereo not drawn)	3	14%	-2.7	/	-9	3.0%	0.6
Cc1ccc(N(CC(=O)NCCSc2ccccn2)S(=O)(=O)c2ccc(F)cc2)cc1	-19	-1%	-2.5	/	-12	-1.3%	1.4
COCCNC(=O)C1CC2Cn3c(nc4cc(C)c(C)cc43)C2N1C (stereo not drawn)	4	6%	-0.4	-1.6%	2	0.8%	1.1
Cn1c(=O)cc(SCC(=O)N2CCCC2)c2ccccc21	-5	18%	-0.5	28µM*	1	-0.5%	0.8
CC(C)Oc1ccc(S(=O)(=O)N2CCOCC2)cc1NC(=O)CC1CC2CCC1C2 (stereo not drawn)	-8	/	/	0.1%	/	1.4%	-0.9
O=C(O)c1ccccc1NS(=O)(=O)c1cccc2nsnc12	-6	-13%	1.9	0.0%	1	0.0%	0.5
Cc1ccc(S(=O)(=O)N(C(=O)c2ccncc2)c2ccc(OC(=O)c3ccncc3)c3ccccc23)c(C)c1	58	45µM*	-2.0	2.4%	3	-0.4%	-0.7
CCCc1cc(=O)[nH]c(SCc2cccnc2)n1	15	12%	8.2	1.6%	-8	-1.0%	-0.6
COc1cccc(CN2C(=O)N(C(C)C)C(N(O)C(=O)NC(C)C)C2(C)C)c1OC (stereo not drawn)	33	16%	1.2	1.3%	4	-0.4%	-0.7
Cn1c(Cn2nnc3ccccc32)nnc1SCC(=O)Nc1ccc2c(c1)OCO2	-11	12%	1.6	-0.2%	-2	3.0%[38.3 µM]	1.5
CC(=O)Nc1ccc(NC(=O)C(C)OC(=O)c2cccs2)cc1 (stereo not drawn)	-4	/	/	0.5%	-8	-0.2%	0.6
N#C/C(=C(/O)CCl)c1nc2c(s1)CCc1ccccc1-2	11	56µM*	23	-2.4%	5	-2.7%	-0.3
Cc1noc(C)c1CSCC(=O)Nc1cc(C(F)(F)F)ccc1N1CCCCC1	41	/	/	-1.5%	-5	1.0%	1.1
O=C(CSc1nc2ccccc2n1Cc1ccc(Cl)cc1)N/N=C/c1ccc(C(=O)O)cc1	3	6%	-1.6	/	-3	0.5%	-0.1
O=C(O)CCS(=O)(=O)Cc1cccc(Cl)c1	-2	15%	3.4	-1.7%	-2	-10%[38.3 µM]	0.4
CC1CCN(C(=O)c2ccc(NC(=O)c3nsc4ccccc34)cc2)CC1	-4	/	/	-8.4%	/	-0.6%	1.3
CCOCCCNCc1cccc(OCc2ccc(F)cc2)c1	1	-8%	5.0	0.7%	6	-1.6%	-0.2
O=c1c2ccccc2n2c(=S)[nH]nc2n1-c1ccccc1	23	45µM*	-11	/	-1	-0.5%	-0.2
O=C(Nc1nccs1)c1sc2ccccc2c1Cl	0	-2%	-1.2	1.9%	-12	1.1%	0.1
Cc1nnc(SCC(=O)N(C)c2ccccc2)n1Cc1ccccc1	13	16%	0.6	/	-2	0.1%	0.1
CC(C)CCNC(=O)C(=O)NC1CCCC1	2	9%	4.7	/	6	-1.2%	0.3
Cc1ccccc1NC(=O)CC1NCCNC1=O (stereo not drawn)	10	/	/	0.4%	/	2.5%	-0.2
O=C(CSc1nc2ccccc2n1Cc1ccc(F)c(Cl)c1)N1CCN(c2ccc(F)cc2)CC1	-13	/	/	0.3%	/	-1.0%	-0.5
CCCC(=O)c1c(NCCO)cc(C)oc1=O	-8	-7%	3.5	/	-6	-2.3%	0.3
C/C(=N\N=C1\NC(=O)C(CC(=O)O)S1)c1ccccn1 (stereo not drawn)	-14	-10%	1.9	/	3	3.2%	0.0
CCCN(c1ccc(OCC)cc1)S(=O)(=O)c1ccc2c(c1)NC(=O)CO2	3	9%	/	1.3%	-23	0.4%	1.9
Cc1ncc([N+](=O)[O-])n1CC(=O)NC1CCCC1	0	3%	-2.3	-1.4%	-2	1.6%[38.3 µM]	-0.3
